Screening data deposited in PubChem by ICCB-Longwood Screening Facility, Harvard Medical School.
Bm FixLJ act – increases Burkholderia fixLJ two-component signaling. B. multivorans fixK-promoter GFP reporter, 18 h; hits give high values. z-score (no concentration beside the values). hit rate 0.3% among 29,000. AID 1918990;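 active = replicate mean overnight rise in green fluorescent reporter signal, 3 or more SD over negative controls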;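 also: score is relative to vehicle wells of the plate; 300 nL library stock went into each well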
* hit, by the source's call.

Start of the listing, in advance, 22 compounds:
SMILES | Bm FixLJ act
CCOC(=O)c1cccc(NC(=O)C2CCCN(S(=O)(=O)c3cc(Br)cc4c3N(C(=O)CC)CC4)C2)c1 (stereo not given) | -0.12
COc1ccccc1OCC(=O)N(Cc1cccs1)C1CCS(=O)(=O)C1 (stereo not given) | -3
COc1cccc(/C=C(\C#N)c2nc3ccc(C)cc3[nH]2)c1 | -2.06
COc1ccc2c(C)c(CCC(=O)NCc3ccccc3Cl)c(=O)oc2c1C | -2.59
CCCc1noc(C2CCC(=O)N(Cc3ccc(Cl)cc3)C2)n1 (stereo not given) | -0.44
CCN1CCCC(OC(=O)C(c2ccccc2)c2ccccc2)C1 (stereo not given) | -0.37
Nc1nc(CCCNC(=O)c2ccc3c(c2)CCCO3)cs1 | -0.56
COc1ccc(C(=O)N2CC3c4ccccc4OC[C@]3(C(=O)O)C2)c(O)c1 (stereo not given in full) | -0.51
CC(=O)c1cccc(C(=O)NCCCOC2CCN(C)CC2)c1 | 0.52
COc1cc(OC)cc(C(=O)Nc2ccc3nc4n(c(=O)c3c2)CCCCC4)c1 | 0.28
COc1ccc(-c2nc(CSCC(=O)NCCc3ccc(C)cc3)c(C)o2)cc1OC | -0.69
COC(=O)c1ccc(-n2nnc(-c3nsc(NC(=O)c4ccc(Cl)cc4)n3)c2C)cc1 | -1.13
Cc1nn(CC(=O)N2CCN(c3ccccc3)CC2)c(=O)c2cc3sccc3n12 | -1.03
CCCN(CCC)CCCNC(=O)c1cc2c(-c3ccc(Cl)cc3)nn(C)c2s1 | -1.69
Cc1ccc(CN(CCCO)C(=O)NCc2noc(C(C)C)n2)s1 | -0.55
Cc1ccc(OCCCCn2nnc3sc4c(c3c2=O)CCC(C)C4)cc1 (stereo not given) | -1.24
Cc1nc(CCNC(=O)C2CC(=O)N(c3ccc(C(C)C)cc3)C2)no1 (stereo not given) | -0.36
CCCN1C(=O)c2[nH]nc(-c3ccccc3)c2C1c1cccc(O)c1 (stereo not given) | 1.19
CCN1CC2(CCC1=O)CCN(C(=O)Nc1ccccc1C)CC2 | -0.51
CC1CCN(S(=O)(=O)c2ccc3c(c2)N(CC(=O)N2CCN(c4ccc(Cl)cc4)CC2)C(=O)CO3)CC1 | -0.31
Cc1ccc(S(N)(=O)=O)cc1C(=O)NC(c1nccn1C)C(C)C (stereo not given) | 1.06
CCn1c(C)nnc1SCCNC(=O)Cc1csc(C)n1 | -0.06

The whole of this part, repeating the preview:
SMILES | Bm FixLJ act
CCOC(=O)c1cccc(NC(=O)C2CCCN(S(=O)(=O)c3cc(Br)cc4c3N(C(=O)CC)CC4)C2)c1 (stereo not given) | -0.12
COc1ccccc1OCC(=O)N(Cc1cccs1)C1CCS(=O)(=O)C1 (stereo not given) | -3
COc1cccc(/C=C(\C#N)c2nc3ccc(C)cc3[nH]2)c1 | -2.06
COc1ccc2c(C)c(CCC(=O)NCc3ccccc3Cl)c(=O)oc2c1C | -2.59
CCCc1noc(C2CCC(=O)N(Cc3ccc(Cl)cc3)C2)n1 (stereo not given) | -0.44
CCN1CCCC(OC(=O)C(c2ccccc2)c2ccccc2)C1 (stereo not given) | -0.37
Nc1nc(CCCNC(=O)c2ccc3c(c2)CCCO3)cs1 | -0.56
COc1ccc(C(=O)N2CC3c4ccccc4OC[C@]3(C(=O)O)C2)c(O)c1 (stereo not given in full) | -0.51
CC(=O)c1cccc(C(=O)NCCCOC2CCN(C)CC2)c1 | 0.52
COc1cc(OC)cc(C(=O)Nc2ccc3nc4n(c(=O)c3c2)CCCCC4)c1 | 0.28
COc1ccc(-c2nc(CSCC(=O)NCCc3ccc(C)cc3)c(C)o2)cc1OC | -0.69
COC(=O)c1ccc(-n2nnc(-c3nsc(NC(=O)c4ccc(Cl)cc4)n3)c2C)cc1 | -1.13
Cc1nn(CC(=O)N2CCN(c3ccccc3)CC2)c(=O)c2cc3sccc3n12 | -1.03
CCCN(CCC)CCCNC(=O)c1cc2c(-c3ccc(Cl)cc3)nn(C)c2s1 | -1.69
Cc1ccc(CN(CCCO)C(=O)NCc2noc(C(C)C)n2)s1 | -0.55
Cc1ccc(OCCCCn2nnc3sc4c(c3c2=O)CCC(C)C4)cc1 (stereo not given) | -1.24
Cc1nc(CCNC(=O)C2CC(=O)N(c3ccc(C(C)C)cc3)C2)no1 (stereo not given) | -0.36
CCCN1C(=O)c2[nH]nc(-c3ccccc3)c2C1c1cccc(O)c1 (stereo not given) | 1.19
CCN1CC2(CCC1=O)CCN(C(=O)Nc1ccccc1C)CC2 | -0.51
CC1CCN(S(=O)(=O)c2ccc3c(c2)N(CC(=O)N2CCN(c4ccc(Cl)cc4)CC2)C(=O)CO3)CC1 | -0.31
Cc1ccc(S(N)(=O)=O)cc1C(=O)NC(c1nccn1C)C(C)C (stereo not given) | 1.06
CCn1c(C)nnc1SCCNC(=O)Cc1csc(C)n1 | -0.06
CC(C)(C)c1ccc(OCCOCCn2c(-c3ccc(Cl)cc3)nc3ccccc3c2=O)cc1 | -1.06
COC(=O)c1ccccc1NC(=O)Cn1nc(C(F)(F)F)c2c1CCCC2 | 0.49

Retrieved by compound from above, 2 records:
SMILES | Bm FixLJ act
CCCN(CCC)CCCNC(=O)c1cc2c(-c3ccc(Cl)cc3)nn(C)c2s1 | -1.69
Cc1ccc(S(N)(=O)=O)cc1C(=O)NC(c1nccn1C)C(C)C (stereo not given) | 1.06

The list goes on:
SMILES | Bm FixLJ act
CCN1CCc2[nH]cnc2C12CCN(C(=O)c1cc(F)c(F)c(F)c1)CC2 | 1.2
CCCn1cc(S(=O)(=O)N2CCCN(Cc3cccs3)CC2)cn1 | 0.09
COc1cccc(-c2nc(SCC(=O)Nc3ccc4c(c3)OCO4)c(-c3ccccc3)[nH]2)c1 | 0.25
O=C(CC1C(=O)N(c2ccccc2)C(=O)N1CCc1cccs1)Nc1ccc(F)cc1 (stereo not given) | -1.22
COc1ccc(CCN(Cc2ccccc2F)C(=O)c2cn[nH]c2)cc1 | -0.15
Cc1cc(C(F)(F)F)n(-c2nc(C(=O)NCCCn3ccnc3C(C)C)cs2)n1 | -1.32
CCOc1ccc(C(=O)c2cn(CC(=O)Nc3ccc(C)c(Cl)c3)c3ccc(OCC)cc3c2=O)cc1 | -1.57
O=C(CCCn1cncn1)NC1CCN(c2ncccn2)CC1 | 0.72
CCCc1cc(CNC(=O)c2ccc3c(c2)OCC(=O)N3)on1 | 0.27
Cc1c2cnn(CC(=O)N3CCN(c4ccccc4)CC3)c(=O)c2c(C)n1Cc1ccc(F)cc1 | -1.82
Cc1ccc(C)c(NC(=O)CN(C)S(=O)(=O)c2cccc3nsnc23)c1 | -0.57
Cc1ccc(CNC(=O)CCN2C(=O)COc3ccc(C)cc32)cc1 | -1.56
Cc1ccc2c(c1)c(=O)c1ccccc1n2CCCC(=O)Nc1ccc(Cl)c(Cl)c1 | -0.81
CCOC(=O)c1c(NC(=O)CCCOc2ccc(C(C)(C)C)cc2)sc2c1CCCC2 | -1.98
CC1CCCN(C(=O)Cn2c(=O)oc3cc(S(=O)(=O)N4CCCCC4)ccc32)C1 (stereo not given) | -0.92
Cc1cc(C)n2c(Nc3c(C)cccc3C)c(-c3ccsc3)nc2n1 | -0.51
Cn1cccc1-c1cc(C(=O)N2CCC(n3c(=O)[nH]c4ccccc43)CC2)[nH]n1 | -0.96
O=C(CN1CCOC1=O)NCCc1nc(-c2cccnc2)no1 | -0.87
COC(=O)CC1Oc2ccc(Cl)cc2-n2cc(-c3ccccc3)nc21 (stereo not given) | 0.63
CS(=O)(=O)N1CCCC(CNC(=O)CCc2cn3ccccc3n2)C1 (stereo not given) | -0.31
CNc1ncccc1C(=O)N1CCC2(CC1)OCCc1cccc(OC)c12 | -1.27
Cc1ccc(Sc2ccc(N3CCCC(C(=O)Nc4ccc(F)cc4F)C3)nn2)cc1 (stereo not given) | -3.38
Cn1c(=O)c2cc(C(=O)Nc3cccc(C#N)c3)sc2c2ccccc21 | 0.18
COCC(c1ccccn1)N(C)C(=O)C(C)(C)Oc1ccccc1OC (stereo not given) | 0.07
CCN1CCC(CCNC(=O)N(C)Cc2cn[nH]c2-c2ccc(F)cc2)CC1 | -0.55
Cn1c(NCCN)nc2c1c(=O)n(Cc1ccccc1)c(=O)n2C | -2.25

Some of the compounds tested (hit frequency here may not be typical).
